# Bioassay records from PubChem.
# Ecoli growth: E. coli growth inhibition; OD600 absorbance (no concentration beside the values); AID 1053175; 330,000 compounds, 0.21% hits; Escherichia coli growth, OD600, 23 h; active compounds read low;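 active = OD600 absorbance below the run mean of sample wells minus 3.6 SD, in any replicate, cut at about 0.56 in these data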;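 note: stock transfer was 300 nL into about 60 µL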
# ALR H2O2 inh: inhibitors of human sulfhydryl oxidase ALR | purified ALR, DTT oxidation, H2O2 HRP-luminol luminescence | inhibition, % (concentration not given with the values) | 290,000 compounds, 3.8% hits;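 active = mean and each replicate at 75% or more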;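 note: stock transfer was 7.5 nL into about 7.5 µL; 0% = neutral wells and 100% = wells with inactivated enzyme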
# Target sequence (P55789 whole entry, looked up): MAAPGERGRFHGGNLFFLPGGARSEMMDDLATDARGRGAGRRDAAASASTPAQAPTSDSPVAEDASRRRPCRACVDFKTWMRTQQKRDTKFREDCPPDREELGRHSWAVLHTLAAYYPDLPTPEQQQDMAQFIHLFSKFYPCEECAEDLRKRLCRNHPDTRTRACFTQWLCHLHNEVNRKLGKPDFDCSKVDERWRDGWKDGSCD
# Vif A3G: inhibitors of Vif binding to APOBEC3G peptide, primary screen, biochemical, TR-FRET, GST-Vif 1-94, biotin-A3G peptide, dose response retest (AID 1117319). TR-FRET GST-Vif / biotin-A3G peptide binding; higher % means a stronger effect; test concentration not given here; strong numbers were not always called active. inhibition, %; hits with a dose series show IC50 in µM. 260,000 compounds, 0.57% hits;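 active = above the screen mean plus three standard deviations and confirmed in dose response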;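 note: Vif residues 1-94 fused to GST binding biotinylated APOBEC3G peptide 110-148; 0% = full assay without inhibitor and 100% = GST in place of GST-Vif; retest series ran down from 100 µM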
# FGF22 binding: shifts melting point of recombinant human FGF22; 340,000 compounds, 1.5% hits; recombinant FGF22 thermal shift, SYPRO orange fluorescence; percent of sucrose octasulfate shift, DMSO zero; calls only at 9.99 µM; AID 651658;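 active = melting point raised past a set limit in the mean and every replicate; three in four hits are not shown here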
# Target sequence (Q9HCT0 whole entry, looked up): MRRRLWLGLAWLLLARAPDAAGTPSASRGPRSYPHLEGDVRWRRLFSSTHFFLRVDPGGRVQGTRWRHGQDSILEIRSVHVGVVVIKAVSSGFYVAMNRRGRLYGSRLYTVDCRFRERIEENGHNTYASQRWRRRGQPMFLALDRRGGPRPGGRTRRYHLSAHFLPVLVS
# MLL AF4-AF9 inh: blocks AF4 peptide binding to human AF9; P42568; AlphaScreen, biotin-AF4 peptide binding to FLAG-AF9; inhibition, % at 10 µM; 350,000 compounds, 0.47% hits; AID 651704;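 active = every replicate reaching a set inhibition limit, whatever the replicate mean, cut at about 25% in these data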;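 note: 0% = plate neutral control median and 100% = total signal loss; the record names both 10 and 1 µM as test concentration; the first replicate is given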
# Target sequence (P42568 whole entry, looked up): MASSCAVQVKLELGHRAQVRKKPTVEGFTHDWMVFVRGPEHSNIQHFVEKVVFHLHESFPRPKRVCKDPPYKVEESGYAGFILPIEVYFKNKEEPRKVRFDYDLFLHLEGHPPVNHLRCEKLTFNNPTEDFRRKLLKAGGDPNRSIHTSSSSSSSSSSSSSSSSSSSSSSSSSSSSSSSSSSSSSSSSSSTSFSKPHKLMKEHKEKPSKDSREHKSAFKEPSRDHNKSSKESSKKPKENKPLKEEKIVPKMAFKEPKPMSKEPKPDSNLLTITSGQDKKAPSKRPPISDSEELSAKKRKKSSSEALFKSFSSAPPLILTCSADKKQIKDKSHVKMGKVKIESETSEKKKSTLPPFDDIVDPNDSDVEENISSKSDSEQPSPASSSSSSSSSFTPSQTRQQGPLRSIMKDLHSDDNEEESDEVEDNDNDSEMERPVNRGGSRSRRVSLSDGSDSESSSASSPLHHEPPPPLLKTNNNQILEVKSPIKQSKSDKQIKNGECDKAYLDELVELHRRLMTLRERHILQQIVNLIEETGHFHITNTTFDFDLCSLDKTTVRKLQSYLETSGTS
# rRNA inh HTS: inhibitors of bacterial rRNA selective over humanized ribosomes | E. coli WT GFP vs humanized-ribosome RFP mutants, fluorescence, 24 h; active compounds read low; DMSO median 0, no signal -100 | GFP signal change (wild-type ribosome), % (no concentration beside the values) | 350,000 compounds, 1.6% hits | AID 720706;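 active = significant combined selectivity score with lowered wild-type GFP, culture density cut under 30%, mutant RFP and density less affected; inactive = any of these conditions unmet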; note: one replicate is shown; some compounds called inactive have numbers as strong as hits
# HNF4A DNA FP: change in binding of human HNF4 alpha to DNA | P41235 | HNF4a-FITC DNA binding, fluorescence polarization, 1 h | activity change, % at 10 µM | 360,000 compounds, 0.3% hits; in the data active = activity change above about 30%, passing the limit was not always enough;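 note: controls were the assay level and a saturating level of protein; the project sought stronger binding though the title names inhibitors; some compounds called inactive have numbers as strong as hits; positive values seem to mean higher polarization but the record does not say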
# rRNA inh HTS OD600: recorded beside rRNA inh HTS, whose call it bears; OD600 change, %; measured here: OD600 growth;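 optical density of the mix in the first replicate; 0 = DMSO median and -100 = no signal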
# rRNA inh HTS RFP: also measured in rRNA inh HTS; calls as there; RFP signal change, %; measured here: RFP humanized mutant strains;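 first replicate; 0 = DMSO median and -100 = no signal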
# The depositor's hits bear a star; i = inactive; . = no result given. The list is partial; rates above refer to the full screens.
[1] Cn1cnc(CCNC(=O)[C@@H]2[C@@H](CO)[C@@H]3Cn4c(cccc4=O)[C@H]2N3C(=O)Nc2ccccc2)c1
[2] COC(=O)C[C@H]1CC[C@@H]2[C@@H](COc3ccc(NC(=O)c4cscn4)cc3C(=O)N2C)O1
[3] C=CCn1c(-c2ccccc2)ccc(C#N)c1=O
[4] COc1cc(OC)c2ccc(=O)oc2c1C(CC(=O)N1CCCC(C)C1)c1ccc2c(c1)OCO2 (stereo not drawn)
[5] CN(Cc1ccccc1)S(=O)(=O)c1ccc(NC(=O)C2CCCO2)cc1 (stereo not drawn)
[6] CCNC(=O)COc1ccc(F)cc1C(=O)c1cnn(-c2ccccc2)c1
[7] O=C(/C=C/c1ccc(S(=O)(=O)NCc2ccco2)cc1)NCc1cccc(Cl)c1
[8] C[C@H](CO)N1C[C@H](C)[C@@H](CN(C)C(=O)Nc2ccc(F)cc2)Oc2ccc(NC(=O)Nc3ccc(C(F)(F)F)cc3)cc2CC1=O
screen / no.,1,2,3,4,5,6,7,8
Ecoli growth,.,.,0.73,0.68,0.67,0.62,0.69,.
ALR H2O2 inh,.,.,.,-3,0,-1,9,.
Vif A3G,.,.,-4%,24%,0%,-2%,.,.
FGF22 binding,i,i,.,i,i,i,.,i
MLL AF4-AF9 inh,1.8,-0.5,.,8.7,3.2,-2.6,.,1.9
rRNA inh HTS,4,-7,.,-13,-7,5,.,6
rRNA inh HTS OD600,2,-11,.,-9,-7,1,.,0
rRNA inh HTS RFP,-3.4,3.2,.,-6.7,-4.6,5.8,.,4.1
HNF4A DNA FP,.,.,-1.8,-6.0,-0.2,0.2,3.1,.

[9] C[C@@H]1CN([C@@H](C)CO)C(=O)Cc2cc(NC(=O)C3CCCCC3)ccc2O[C@H]1CN(C)Cc1ccc2c(c1)OCO2
[10] COc1cccc2c1C(=O)c1ccc3ccccc3c1C2=O
[11] Cc1ccc(NC(=O)Cn2cc(C=O)c3ccccc32)cc1
[12] CCc1nn(CC(=O)N2CCC(C)CC2)c(=O)c2cccn12
[13] CN(C)C(=O)[C@@H]1[C@@H](CO)[C@@H]2Cn3c(ccc(-c4ccc(F)cc4)c3=O)[C@H]1N2CCc1ccccc1
[14] COc1ccc(NC(=O)COc2ccc(S(=O)(=O)N3CCOCC3)cc2C)cc1OC
[15] N#CC1(NC(=O)CN2C(=O)c3ccccc3C2=O)CCCCC1
[16] O=C(C[C@@H]1C[C@H]2c3cc(NC(=O)Nc4ccc(C(F)(F)F)cc4)ccc3O[C@H]2[C@@H](CO)O1)NCCc1ccccc1
screen / no.,9,10,11,12,13,14,15,16
Ecoli growth,.,0.84,0.7,0.69,.,0.69,0.67,.
ALR H2O2 inh,.,.,-1,1,.,-2,-1,.
Vif A3G,.,19%,.,.,.,-1%,21%,.
FGF22 binding,i,.,i,i,i,i,i,i
MLL AF4-AF9 inh,5.7,.,-3.5,0.1,1.7,-5.5,1.1,-0.4
rRNA inh HTS,-1,.,-18,1,-6,1,4,-2
rRNA inh HTS OD600,0,.,-14,3,-7,8,4,-14
rRNA inh HTS RFP,2.2,.,-2.6,-3.4,-1.8,2.0,-1.9,6.4
HNF4A DNA FP,.,-14,4.1,5.7,.,2.5,-0.9,.

[17] COc1cccc(OCc2cc(C(=O)NCCc3cccc(C)n3)no2)c1
[18] O=C(Nc1cnn(Cc2c(Cl)cccc2Cl)c1)c1ccc([N+](=O)[O-])cc1
[19] CN(C)S(=O)(=O)c1ccc(NC(=O)C2CC(=O)N(Cc3ccccc3)C2)cc1 (stereo not drawn)
[20] COc1ccc2c3c(n(C)c2c1)[C@H](CO)N(C(=O)C1CC1)CC31CN(C(=O)CN(C)C)C1
[21] COC(=O)C(C)Oc1ccc(Oc2nc(Cl)ccc2Cl)cc1 (stereo not drawn)
[22] Cc1ccc(C(=O)N/C(=C\c2cccs2)C(=O)N2CCOCC2)cc1C
[23] Cc1c(N(C(=O)CNC(=O)c2ccccc2)C2(C(=O)NC3CCCCC3)CCCCC2)c(=O)n(-c2ccccc2)n1C
[24] O=C(c1ccc(CS(=O)c2cccc(Cl)c2)o1)N1CCOCC1 (stereo not drawn)
screen / no.,17,18,19,20,21,22,23,24
Ecoli growth,.,0.78,0.7,.,0.69,0.7,0.71,0.65
ALR H2O2 inh,-26,-3,-13,.,-1,-1,.,16
Vif A3G,.,72%,3%,.,-5%,-7%,3%,2%
FGF22 binding,i,.,.,i,i,i,.,i
MLL AF4-AF9 inh,-0.9,.,-1.5,-0.2,-1.3,-1.6,-1.9,-5.1
rRNA inh HTS,-4,.,1,2,-29,6,16,6
rRNA inh HTS OD600,-9,.,-4,15,-30,14,7,-2
rRNA inh HTS RFP,-0.8,.,-0.8,-2.6,-3.1,1.2,-1.7,-2.1
HNF4A DNA FP,-2.2,0.1,3.3,.,-1.4,-5.1,-4.8,0.9

[25] Cc1cc(S(=O)(=O)N2CCN(c3ccccc3O)CC2)c(C)s1
[26] C[C@@H]1CCCCO[C@@H](CN(C)C(=O)Nc2cccc3ccccc23)[C@@H](C)CN([C@H](C)CO)C(=O)c2cc(NC(=O)Nc3ccc4c(c3)OCO4)ccc2O1
[27] CC1CCC(NC(=O)CN(C)S(=O)(=O)c2cccc3cccnc23)CC1 (stereo not drawn)
[28] CC1(c2cc(C(F)(F)F)n3nc(C(=O)O)cc3n2)CC1
[29] CC(C)CNC(=S)N1CCC(C(=O)c2ccc(Cl)cc2)CC1
[30] CCCCn1c(N)c(N(CCC(C)C)C(=O)C2CC(=O)N(c3cccc(SC)c3)C2)c(=O)[nH]c1=O (stereo not drawn)
[31] COc1ccc([C@H](NC(=O)OC(C)(C)C)C(=O)OC(C)(C)C)cc1
[32] O=[N+]([O-])c1ccc(-c2ccc(C=Nc3cccc4ccccc34)o2)cc1
screen / no.,25,26,27,28,29,30,31,32
Ecoli growth,0.71,.,0.7,0.65,.,0.67,.,0.69
ALR H2O2 inh,98*,.,.,-4,.,-1,2,-19
Vif A3G,3%,.,6%,3%,2%,-1%,.,3%
FGF22 binding,i,i,i,.,i,i,i,.
MLL AF4-AF9 inh,7.0,3.1,8.2,.,-1.5,-0.3,-3.0,.
rRNA inh HTS,-4,-2,-5,.,.,0,6,.
rRNA inh HTS OD600,-25,12,0,.,.,0,11,.
rRNA inh HTS RFP,1.0,-3.3,-1.7,.,.,-1.3,-0.5,.
HNF4A DNA FP,-0.5,.,0.3,-0.9,0.0,-1.1,-1.8,1.5

[33] COc1cc(OC)c(NC(=S)NCc2ccccc2)cc1Cl
[34] Cc1cc(F)ccc1NC(=O)c1cc(S(=O)(=O)N2CCCC2)cn1C
[35] COc1ccc(-c2noc(CCCC(=O)NCc3ccco3)n2)cc1OC
[36] CO/N=C/CC(=O)c1ccc([N+](=O)[O-])c(CS(=O)(=O)c2ccc(Cl)cc2)c1
[37] CO[C@@H]1CN(C)C(=O)c2cc(NC(=O)c3cc(C)on3)ccc2OC[C@H](C)N(C(=O)C2CC2)C[C@@H]1C
[38] C#CCOC(=O)c1ccccc1C(=O)N(CC)CC
[39] Cc1cccc(-c2ccc([C@@H]3[C@H]4CN(S(=O)(=O)c5cn(C)cn5)CCCCN4[C@H]3CO)cc2)c1
[40] Nc1cc(C(=O)OCC(=O)NCc2ccco2)ccc1Cl
screen / no.,33,34,35,36,37,38,39,40
Ecoli growth,0.69,0.73,0.7,.,.,0.69,.,0.72
ALR H2O2 inh,-11,-5,-3,0,.,-2,.,-11
Vif A3G,-8%,.,32%,.,.,-1%,.,7%
FGF22 binding,.,i,.,i,i,i,i,.
MLL AF4-AF9 inh,4.1,-10,.,1.2,1.2,-0.8,0.3,.
rRNA inh HTS,-2,-3,.,14,2,14,-45,10
rRNA inh HTS OD600,6,2,.,7,5,14,-73,4
rRNA inh HTS RFP,0.9,-1.4,.,0.9,-2.8,-2.6,0.4,2.0
HNF4A DNA FP,-2.4,-0.5,1.2,0.5,.,-3.3,.,2.0

[41] CN(C(=O)COC(=O)CCc1c[nH]c2ccccc12)c1ccccc1
[42] Cc1ccc2cc(CN(C(=O)c3cccnc3)C(C)C)c(=O)[nH]c2c1
[43] Cc1ccccc1Nc1c(-c2ccncc2)nc2ccc(Br)cn12
[44] CC(=O)Nc1ccc(NC(=O)c2ccc(N(C)S(=O)(=O)c3ccc(C)cc3)cc2)cc1
[45] CC(=O)c1ccc(NC(=O)NCc2ccc(F)cc2)cc1
[46] S=C(NCCCN1CCOCC1)Nc1ccc(Nc2ccccc2)cc1
[47] OCCC1CN(Cc2ccc(-n3cccn3)cc2)CCN1Cc1ccccc1 (stereo not drawn)
[48] O=C(COc1ccccc1)NCc1cccs1
screen / no.,41,42,43,44,45,46,47,48
Ecoli growth,0.65,0.73,0.67,0.73,0.62,0.64,0.71,0.72
ALR H2O2 inh,.,-6,98*,-1,-7,99*,-2,-2
Vif A3G,-5%,12%,9%,.,-2%,16%,.,-5%
FGF22 binding,i,.,.,i,.,i,i,.
MLL AF4-AF9 inh,4.6,.,.,-1.0,7.0,13,-2.1,.
rRNA inh HTS,-12,.,.,8,1,4,7,.
rRNA inh HTS OD600,-8,.,.,14,1,11,6,.
rRNA inh HTS RFP,2.9,.,.,-1.7,-2.2,1.2,3.8,.
HNF4A DNA FP,0.5,16,3.4,1.0,2.0,-2.5,0.9,0.0

[49] N#C/C(=C\c1ccc(Sc2nc3ccccc3[nH]2)o1)c1ccccc1
[50] COc1cccc(C(=O)Nc2ccc3c(c2)OC[C@H](C)N(CC2CC2)C[C@@H](C)[C@H](OC)CN(C)C3=O)c1
[51] Cc1cc2c(nc1C)CCCN2C
[52] CC(NC(=O)CNC(=O)c1cccc(Cl)c1)c1ccccc1 (stereo not drawn)
[53] C[C@@H]1CN([C@H](C)CO)C(=O)c2cc(NC(=O)Cc3cn(C)c4ccccc34)ccc2O[C@H]1CN(C)Cc1ccc(-c2ccccc2)cc1
[54] CCOc1cc2[nH]c(=S)n(Cc3ccc(C(=O)NCCCOC)cc3)c(=O)c2cc1OCC
[55] COc1cccc2c1C(CCCC(=O)O)CCC2 (stereo not drawn)
[56] Cc1ccc(C)c(NC(=O)C2CCCN(S(=O)(=O)c3c(C)nn(C)c3C)C2)c1 (stereo not drawn)
[57] CCOC(=O)c1cc(S(=O)(=O)N2CCCC2)cn1C
[58] CCC(=O)N1[C@H](CO)[C@H](c2ccccc2)[C@H]1CN(C(C)C)S(C)(=O)=O
[59] CNC(=O)C[C@H]1CC[C@@H]2[C@H](COc3ccc(NC(=O)NC4CCCC4)cc3C(=O)N2C)O1
screen / no.,49,50,51,52,53,54,55,56,57,58,59
Ecoli growth,0.77,.,.,0.65,.,0.72,0.62,0.66,0.69,.,.
ALR H2O2 inh,0,.,.,-2,.,.,.,-1,1,.,.
Vif A3G,5%,.,.,.,.,-10%,6%,.,1%,.,.
FGF22 binding,.,i,.,i,i,i,i,i,i,i,i
MLL AF4-AF9 inh,.,0.7,-1.0,-4.8,0.4,-0.2,-3.3,-2.3,-2.1,-1.9,-2.0
rRNA inh HTS,.,-2,26,9,6,2,-7,11,15,2,3
rRNA inh HTS OD600,.,-8,12,12,10,9,-8,9,10,15,3
rRNA inh HTS RFP,.,-1.1,3.4,6.3,1.2,1.2,3.4,-0.5,1.6,-0.9,0.0
HNF4A DNA FP,7.9,.,.,3.2,.,2.2,-0.4,2.1,5.1,.,.

# Already shown: an excerpt of the list.
[21] COC(=O)C(C)Oc1ccc(Oc2nc(Cl)ccc2Cl)cc1 (stereo not drawn)
[22] Cc1ccc(C(=O)N/C(=C\c2cccs2)C(=O)N2CCOCC2)cc1C
screen / no.,21,22
Ecoli growth,0.69,0.7
ALR H2O2 inh,-1,-1
Vif A3G,-5%,-7%
FGF22 binding,i,i
MLL AF4-AF9 inh,-1.3,-1.6
rRNA inh HTS,-29,6
rRNA inh HTS OD600,-30,14
rRNA inh HTS RFP,-3.1,1.2
HNF4A DNA FP,-1.4,-5.1
